Mtb betalactam: beta-lactam sensitization of Mtb H37Rv; hit rate 0.27% among 330,000; inhibition, % at 25 µM; AID 434955; M. tuberculosis H37Rv growth with meropenem, percent inhibition; hits of this screen are not shown here;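 active = about 74% or more and at least 40 points above the plate without the antibiotic, then above 30% in a dose series; inconclusive = first-round hits that could not be retested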;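 note: growth measured after seven days incubation then overnight dye step; 0% = bacteria only wells and 100% = bacteria with antibiotic; twin plates without the antibiotic show which effects depend on it; some results filed as inactive read as strong as hits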
Numbers without * were called inactive; ? = inconclusive. Not all compounds are listed. The share of hits here may be higher or lower than overall.

SMILES	Mtb betalactam
CC1=CC(=O)CC(C)(C)[C@@]1(O)/C=C/[C@@H](C)O[C@@H]1O[C@H](CO)[C@@H](O)[C@H](O)[C@H]1O	1
COc1ccc(NC(=O)CN(C)C(=O)C2=NN(c3ccccc3)C(=O)CC2)cc1	-2
CC(=O)Nc1ccc(C(=O)OCC(=O)NCc2ccc3c(c2)OCO3)cc1	-1
Cc1cc(C(=O)OCC(=O)NCc2ccc(Cl)cc2Cl)c(C)o1	3
CCOC(=O)[C@@H]1[C@H]2COc3ccc(Br)cc3[C@H]2N2C(=O)N(c3ccc(OC)cc3)C(=O)[C@]12C	-5
CSc1nc2ccc(NC(=O)COc3ccccc3F)cc2s1	38
CCCCN(C(=O)c1cccc(S(=O)(=O)N2CCCC2)c1)c1c(N)n(CCC)c(=O)[nH]c1=O	-12
O=C1C=C(c2cccc3c2sc2ccccc23)C[C@@H](c2ccc(F)cc2)C1	-6
COc1ccccc1-c1nc(SCC(=O)N2CCC(C(N)=O)CC2)n[nH]1	-7
CN(C)S(=O)(=O)c1ccc(C(=O)OCC(=O)NC(=O)NC2CCCC2)cc1	-11

Compounds shown so far that contain fluorine, in the order listed:
SMILES	Mtb betalactam
CSc1nc2ccc(NC(=O)COc3ccccc3F)cc2s1	38
O=C1C=C(c2cccc3c2sc2ccccc23)C[C@@H](c2ccc(F)cc2)C1	-6

Additional records
SMILES	Mtb betalactam
Cc1ccc(Cl)c(NC(=O)CSc2cccc[n+]2[O-])c1Cl	1
CC(NC(=O)CN1CCN(C(=O)c2cccs2)CC1)c1ccc(F)cc1F (stereo not given)	-10
COc1ccccc1-c1sc2ccccc2c1-c1ccccc1OC	7
Cc1ccc(C(=O)CCC(=O)N2CCC(C(N)=O)CC2)s1	0
O=C(OCC(=O)N1CCN(C(=O)c2ccco2)CC1)c1cncc(Br)c1	2
O=C(c1cc(C2CC2)nn1-c1ccccc1)N1CCN(c2ncc(C(F)(F)F)cc2Cl)CC1	-7
CN(C)c1ccc(/C=C(\NC(=O)c2ccccc2)C(=O)NCCCN2CCOCC2)cc1	?
CCCn1c(=O)c(C(=O)NNC(=O)c2cccc([N+](=O)[O-])c2)c(O)c2ccccc21	0
O=C1OC[C@@H]2CCCN2C(=O)[C@@H](CC(=O)N(CCO)Cc2ccccc2)C/C=C\C[C@H]1Cc1ccc(F)cc1	3
Cc1ccc(F)cc1NC(=O)COC(=O)C1CCN(c2ccc(C(F)(F)F)cn2)CC1	-9
CCOc1ccc(C(=O)OCC(=O)Nc2cccnc2Cl)cc1OCC	-6
COc1ccccc1N1CCN(C(=O)c2ccc(Br)o2)CC1	2
COc1ccc([C@H]2CC(=O)C=C(c3ccccc3)C2)cc1OC	62
COc1cc(OC)cc(C(=O)NCC(=O)N2CCN(S(=O)(=O)c3ccccc3F)CC2)c1	3
Cc1nnc2n1N=C(c1ccc(F)cc1F)CS2	-2
CN(C(=S)NC(=O)c1ccc(F)cc1)C1CCCCC1	82
O=C(COC(=O)c1ccncc1)Nc1cc(S(=O)(=O)N2CCOCC2)ccc1Cl	-3
O=C(Cn1cnc2c(OCc3ccccc3)ncnc21)NCC1CCCO1 (stereo not given)	0
Cc1ccc(NC(=O)COC(=O)c2cccc(C)c2[N+](=O)[O-])cc1S(=O)(=O)N1CCCCC1	2
Cc1cc(C)c(NC(=O)CNC(=O)Cc2ccc(S(=O)(=O)N3CCOCC3)s2)c(C)c1	-1
CCN(CC(=O)NCc1cccs1)C(=O)COc1ccc(C(N)=O)cc1	-2
O=C(NNC(=O)C1CCN(S(=O)(=O)c2ccc(Cl)cc2)CC1)c1ccccc1O	1
O=C(NCCc1ccc2c(c1)OCCO2)c1cccc(S(=O)(=O)N2CCCC2)c1	-3
COc1ccc(-c2sc3ccccc3c2/C=C/c2ccc(OC)c(OC)c2)cc1	12
O=C(OCC(=O)N1CCCC1=O)C1CCN(S(=O)(=O)c2ccc(Cl)c(C(F)(F)F)c2)CC1	2
O=C(COC(=O)c1ccc(S(=O)(=O)N2CCCCC2)cc1)NCc1ccccc1	-2
CNc1ccccc1C(=O)OC(C)C(=O)Nc1ccc(S(=O)(=O)N2CCCC2)cc1 (stereo not given)	3
CC(C)CN(C(=O)Cn1ccccc1=O)C1CCS(=O)(=O)C1 (stereo not given)	-8
Cc1ccc(S(=O)(=O)N2CCCCC2)cc1NC(=O)C1=NN(c2ccccc2)C(=O)CC1	5
O=C1CCCC(=O)C1C(c1ccc(Cl)cc1)C1C(=O)CCCC1=O	4
Cc1c(Cl)cccc1NC(=O)CCN1CCC(C(N)=O)CC1	-1
CCCCCCCNC(=O)C1(CC2CC(c3ccccc3)=NO2)CCN(C(=O)c2ccccc2)CC1 (stereo not given)	39
Cc1ccc(C)c(NC(=O)CN(C)C(=O)CN2C(=O)NC3(CCc4ccccc43)C2=O)c1 (stereo not given)	-10
CN(C)C(=O)N1CCN(S(=O)(=O)c2ccc3ccccc3c2)CC1	-3
O=C(OCC(=O)N1CCN(S(=O)(=O)c2ccc(Cl)cc2)CC1)C1CC1	17
COc1cc2c(cc1CNC[C@H]1O[C@@H](n3cnc4c(N)ncnc43)[C@H](O)[C@@H]1O)OCO2	-1
CCN1C(=O)[C@H]2[C@@H](c3ccc(-c4ccc(OC)cc4)c(OC)c3)N[C@@](Cc3ccccc3)(C(=O)OC)[C@H]2C1=O	-1
C#CCOCCOCCOCCNc1nc(N2CCN(C(=O)[C@H](CC(N)=O)n3cc(C(N)[C@@H](C)CC)nn3)CC2)nc(N2CCN(C(=O)[C@H](CCC(=O)O)n3cc([C@@H](N)CCCCN)nn3)CC2)n1 (stereo not given in full)	0
CCOc1ccccc1NC(=O)C1CCCCN1S(=O)(=O)c1ccccc1 (stereo not given)	1
COc1ccc2c(c1)C(=O)N1[C@H]3c4cc(Cl)ccc4OC[C@@H]3[C@H](c3ccccc3)[C@]1(C)C(=O)N2	39

Six compounds picked at random from the list so far:
SMILES	Mtb betalactam
O=C1OC[C@@H]2CCCN2C(=O)[C@@H](CC(=O)N(CCO)Cc2ccccc2)C/C=C\C[C@H]1Cc1ccc(F)cc1	3
Cc1ccc(C(=O)CCC(=O)N2CCC(C(N)=O)CC2)s1	0
O=C(COC(=O)c1ccncc1)Nc1cc(S(=O)(=O)N2CCOCC2)ccc1Cl	-3
CC(NC(=O)CN1CCN(C(=O)c2cccs2)CC1)c1ccc(F)cc1F (stereo not given)	-10
O=C(OCC(=O)N1CCN(C(=O)c2ccco2)CC1)c1cncc(Br)c1	2
CCOc1ccc(C(=O)OCC(=O)Nc2cccnc2Cl)cc1OCC	-6

Next structures
SMILES	Mtb betalactam
COc1cccc(CN(C(=O)CN2C(=O)c3ccccc3S2(=O)=O)C(C(=O)NCC2CCCO2)c2ccco2)c1 (stereo not given)	-23
COc1ccccc1N1CCN(CCCCNC(=O)c2ccc3ccccc3c2)CC1	1
CC1CCCC(NC(=O)c2cc(S(=O)(=O)N3CCCCC3)ccc2Cl)C1C (stereo not given)	-4
COC(=O)[C@]1(C)N[C@H](CN(C)S(=O)(=O)c2ccc(F)cc2)[C@@H]2C(=O)N(C)C(=O)[C@@H]21	-5
COCCCNC(=O)Cc1ccc(S(=O)(=O)N2CCOCC2)s1	-9
CC(=O)N1CCN(c2ccc(S(=O)(=O)N3CCCCC3)cc2[N+](=O)[O-])CC1	-2
O=c1oc(C2(O)CCCCC2)cc2ccccc12	-1
N#Cc1ccc(S(=O)(=O)N2CCN(C(=O)[C@@H]3CCCN3C(=O)c3cccs3)CC2)cc1	-2
O=C(COC(=O)C12CC3CC(CC(Cl)(C3)C1)C2)N1CCCCC1	-5
CCC(C)c1ccccc1NC(=O)c1cccc(-n2cnnn2)c1 (stereo not given)	5
CC(C)(C#N)NC(=O)C1CCCN1S(=O)(=O)c1ccc2ccccc2c1 (stereo not given)	-2
COc1cc(C(=O)NCC2CCCO2)ccc1OCc1ccc(Cl)cc1 (stereo not given)	62
COc1cc(-c2noc(C)c2C(=O)NCc2ccc3c(c2)OCO3)cc(OC)c1OC	-18
O=C(O)c1cccc(NC(=O)c2ccc(CN3C(=O)c4ccccc4C3=O)cc2)c1	5
CNC(=O)CC(CC(=O)c1ccccc1)c1ccccc1 (stereo not given)	9
COc1ccc(CCC(=O)Nc2cccc(S(=O)(=O)N3CCCC3)c2)cc1OC	-8
COc1cc(C(O)CN)ccc1O (stereo not given)	72
CC1CN(C(C)C(=O)NNC(=O)c2ccc(F)cc2)CC(C)O1 (stereo not given)	-3
O=C(NCc1ccccc1CN1CCCCC1)c1ccc(Cl)cc1N1CCCC1=O	-10
C[C@@H]1CN([C@@H](C)CO)C(=O)c2cc(NS(=O)(=O)c3ccc(Cl)cc3)ccc2O[C@H]1CN(C)Cc1ccncc1	-11

Of the compounds above, these contain a nitro group on carbon.
SMILES	Mtb betalactam
CCCn1c(=O)c(C(=O)NNC(=O)c2cccc([N+](=O)[O-])c2)c(O)c2ccccc21	0
Cc1ccc(NC(=O)COC(=O)c2cccc(C)c2[N+](=O)[O-])cc1S(=O)(=O)N1CCCCC1	2
CC(=O)N1CCN(c2ccc(S(=O)(=O)N3CCCCC3)cc2[N+](=O)[O-])CC1	-2

Continuation:
SMILES	Mtb betalactam
COCc1c(C(=O)OCC(=O)NCCc2ccc(S(N)(=O)=O)cc2)oc2ccccc12	5
COC(=O)C1=C(c2cccc(OCc3ccccc3)c2)C[C@@H]2CC[C@H]1N2C(=O)NCCCc1ccccc1	-2
C=CC[C@H](CC(=O)OC(C)(C)C)C(=O)OC[C@@H]1CCCN1C(=O)[C@@H](CC=C)CC(=O)N[C@H](CO)Cc1ccccc1	0
COc1ccc(Br)cc1CN(C)C(=O)C1CC(=O)N(C2CCCC2)C1 (stereo not given)	-2
COc1ccccc1OCCNC(=O)CN1C(=O)NC2(CCCCC2)C1=O	0
CCCCN1CCCCC1C(=O)Nc1c(C)cccc1C (stereo not given)	-6
C[C@]12CCC(=O)C[C@H]1CC[C@@H]1[C@@H]2CC[C@]2(C)[C@@H](O)CC[C@@H]12	8
CC(Sc1nc2c(c(=O)[nH]1)CCCC2)C(=O)Nc1ccccc1C#N (stereo not given)	-2
CC(C)(C)OC(=O)C[C@@H]1C/C=C\C[C@H](CC(=O)N(CCO)Cc2ccccc2)C(=O)N2CCC[C@@H]2COC1=O	-4
Cc1ccc(S(=O)(=O)Nc2ccc3c(c2)C(=O)N([C@H](C)CO)C[C@H](C)[C@@H](CN(C)C(=O)Nc2ccc4c(c2)OCO4)O3)cc1	6

Overlap with the part before: three entries; new compounds follow.
SMILES	Mtb betalactam
CC(Sc1nc2c(c(=O)[nH]1)CCCC2)C(=O)Nc1ccccc1C#N (stereo not given)	-2
CC(C)(C)OC(=O)C[C@@H]1C/C=C\C[C@H](CC(=O)N(CCO)Cc2ccccc2)C(=O)N2CCC[C@@H]2COC1=O	-4
Cc1ccc(S(=O)(=O)Nc2ccc3c(c2)C(=O)N([C@H](C)CO)C[C@H](C)[C@@H](CN(C)C(=O)Nc2ccc4c(c2)OCO4)O3)cc1	6
Cc1cc(=O)oc2cc(OCC(=O)N3CCCC3)ccc12	-1
CCN(CC)S(=O)(=O)c1cc(NC(=O)COC(=O)C2CCC2)ccc1C	-4
O=C(/C=C/c1cccc(Br)c1)OCC(=O)N1CCN(c2ccccc2)CC1	11
CC[C@H](CO)Oc1cc(NCc2ccc(Cl)c(Cl)c2)c2ncn(C(C)C)c2c1	12
CN(Cc1ccco1)C(=O)CSc1nn2c(=O)c(C(C)(C)C)nnc2s1	3
Cn1c(=O)n(C)c2cc(NC(=O)CCc3ccccc3)c(Br)cc21	-5
COc1ccc([C@H]2CC(=O)C=C(c3ccc4c(c3)OCCO4)C2)cc1	73
Cc1ccc(CNc2ccc(N3CCN(C)CC3=O)cc2)cc1	-11
Cc1nn(Cc2ccccc2)c(C)c1C(=O)N1CCN(CC(=O)Nc2ccccc2Cl)CC1	0
CC(C)C(NC(=O)c1ccc(C(C)(C)C)cc1)C(=O)NCc1ccccn1 (stereo not given)	0
OCC[C@H]1C[C@H](O)[C@@H](O)[C@]2(Cc3ccccc3CO2)O1	-5
CCn1c(=O)c2ccccc2n(CC(=O)NC2CCCCC2)c1=O	-1
O=C(CN1C(=O)c2ccccc2C1=O)OCC(=O)N1CCCCC1	-8
CC(c1nc2ccccc2c(=O)[nH]1)N1CCCN(S(=O)(=O)c2ccc(F)cc2)CC1 (stereo not given)	26
O=C(CCN1C(=O)C2CC=CCC2C1=O)Nc1cccc(S(=O)(=O)N2CCCCC2)c1 (stereo not given)	0
COCc1ccc(-c2c(-c3ccccc3OC)sc3cc4c(cc23)OCO4)cc1	5
O=C(NCC(=O)N1CCN(Cc2ccccc2)CC1)c1cc(Cl)cc([N+](=O)[O-])c1	-4
CCC(CO)Oc1cc(NCc2ccccn2)c2ncn(C(C)C)c2c1 (stereo not given)	-9
COc1cccc(CNC(=O)COC(=O)c2c(C)nn(-c3ccccc3)c2Cl)c1	-3
O=C(CCNS(=O)(=O)c1cccc(Cl)c1)OCC(=O)N1CCN(C(=O)c2ccco2)CC1	-4
O=C(NCCCN1CCCC1=O)c1ccccc1OCc1ccc(Cl)cc1Cl	1
Cc1cc(C)c(OCCNCc2ccccc2)c(C)c1	2

High-throughput results (PubChem BioAssay)
